# Assay outcomes as filed in PubChem BioAssay.
# CBX7 AlphaScr: blocks human CBX7 binding to H3K27me3 peptide; O95931; AlphaScreen His6-CBX7 / biotin-H3K27me3 peptide binding; active compounds read low; normalised signal (fraction of DMSO) (test concentration not listed); 66,000 tested, 1.1% active; AID 1224903; in the data active means normalised signal below about 0.5;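 further: 100 nL library stock added to about 20 µL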
# Target sequence (O95931 whole entry, looked up): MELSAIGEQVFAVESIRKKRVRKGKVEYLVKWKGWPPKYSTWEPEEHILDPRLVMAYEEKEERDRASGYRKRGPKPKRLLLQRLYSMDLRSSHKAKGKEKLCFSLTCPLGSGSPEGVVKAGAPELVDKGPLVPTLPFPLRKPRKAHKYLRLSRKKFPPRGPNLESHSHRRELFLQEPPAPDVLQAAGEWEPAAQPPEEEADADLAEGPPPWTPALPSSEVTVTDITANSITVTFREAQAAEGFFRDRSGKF
# CBX7 AlphaScr z-score: second read-out of CBX7 AlphaScr, no call of its own (marks repeat the call); z-score; measured here: z-score of CBX7 signal; some inactives read as strong as hits; reference of the scale not given here;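 same signal on another scale; lower means less binding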
# Numbers without * were called inactive; & = joins results of further samples. This is a subset, so the mix of outcomes need not match the whole.
SMILES,CBX7 AlphaScr,CBX7 AlphaScr z-score
Cc1oc(-c2cccc(Cl)c2)nc1CN1CCC(C(=O)NC(C)c2ccccc2)CC1 (configuration not stated),0.95,-1.2
O=C(NCc1cccnc1)c1ccccc1C(=O)c1ncc[nH]1,1&1,1.7&1.3
Cc1ccc(-c2nc(CSCC(=O)NCc3ccccc3)c(C)o2)cc1,0.94,-1.1
CNC(=O)C1CCC(=O)N1Cc1ccc(F)cc1 (configuration not stated),0.91,-2.5
O=C(Nc1ccccc1Cl)N1CCN(c2ccc3nnc(-c4ccccc4)n3n2)CC1,0.76,-3.4
Cc1ccc(CN2C(=O)CCC2C(=O)N2CCN(c3ccc(F)cc3)CC2)cc1 (configuration not stated),1,1.2
Cc1cc(N2CCN(C)CC2)nc2ccc(NC(=O)c3ccccc3Cl)cc12,0.79,-2.3
CC1CCCCN1C(=O)c1ccc2c(=O)n3c(nc2c1)CCCCC3 (configuration not stated),1,0.29
Cc1c2cnn(CC(=O)O)c(=O)c2c(C)n1Cc1ccccc1,0.8,-2.2
Cc1nc2c(C(=O)O)cnn2c(C)c1Cc1ccccc1,1.1,1.7
CN(C(=O)CCc1nc(-c2ccccc2F)no1)c1cccc(Cl)c1,1.2,2.8
O=C(Nc1ccccc1)N(CCc1ccncc1)C1CCCCC1,1.1,2.9
Cc1cc(S(=O)(=O)n2c(/C=C/c3cccc(Br)c3)nc3ccccc32)ccc1F,1.4,20
O=c1[nH]c2ccc(S(=O)(=O)Nc3ccc(Cl)c(C(F)(F)F)c3)cc2[nH]c1=O,1,0.62
CCCCCNC(=O)c1c[nH]c2ccc(S(=O)(=O)N(C)c3ccc(Cl)cc3)cc2c1=O,0.99,-0.11

# Next section, starting with the last 2 of the part before.
SMILES,CBX7 AlphaScr,CBX7 AlphaScr z-score
O=c1[nH]c2ccc(S(=O)(=O)Nc3ccc(Cl)c(C(F)(F)F)c3)cc2[nH]c1=O,1,0.62
CCCCCNC(=O)c1c[nH]c2ccc(S(=O)(=O)N(C)c3ccc(Cl)cc3)cc2c1=O,0.99,-0.11
Cc1ccc2c(c1)C(c1ccc(F)cc1)N(C(=O)c1cc(Br)ccc1Cl)CC(=O)N2 (configuration not stated),0.62,-3.7
Cc1nc(NC(=O)c2ccccc2)sc1-c1csc(Nc2ccc(S(N)(=O)=O)cc2)n1,1.2,0.22
COc1ccc(CCNC(=O)Cn2c(C)cc3ccccc3c2=O)cc1OC,0.95,-1.3
COc1cc(C2C(=O)N(C3CCCCC3)CC(=O)N2Cc2ccccc2)ccc1OC(C)C (configuration not stated),0.92,-1.1
Cc1ccc(-c2cc3nc4c(c(=O)n3[nH]2)CCC4)cc1,0.96,-0.43
Cc1ccc(CCNC(=O)c2ccc3c(c2)N(Cc2ccccc2F)C(=O)c2ccccc2S3)cc1,1,0.38
CC(C)N(Cc1ccccc1)C(=O)C1=CCN(S(=O)(=O)c2ccccc2)CC1,1.1,1.6
COC(=O)c1ccc(NC(=O)c2c(-c3ccccc3Cl)noc2C)cc1,1,1.8
CN(Cc1ccccc1)c1nc(-c2ccccc2)cc(C(F)(F)F)n1,1.4,4.3
Cc1ccc(CCNC(=O)CN(C)S(=O)(=O)c2cnc[nH]2)cc1,1.2,1.8
Cc1ccc(C)c(-n2c(Cc3cc(=O)[nH]c(=O)[nH]3)nnc2SCC(=O)N2CCCCCC2)c1,0.98,-0.19
O=C(Nc1ccc(Br)cc1F)c1csc2c1CCCCC2,1,0.54
O=C(NC1CCCc2ccccc21)c1cc2c(s1)CS(=O)(=O)C2 (configuration not stated),0.94,-1.6
CCN(CC)S(=O)(=O)c1ccc2c(c1)N(CC(=O)Nc1cccnc1Cl)C(=O)CO2,1,1.5
CCCn1c2ccccc2c2nnc(SCC(N)=O)nc21,1.4,0.77
CCN(C(=O)CCc1nc(-c2ccc(C)cc2)no1)c1cccc(C(F)(F)F)c1,1.2,2.4
COc1ccc(C(=O)CSc2nn3c(SCC(=O)c4ccc(OC)cc4)nnc3s2)cc1,0.97,-0.92
CCOc1cc2c(cc1OCC)C(c1cccc(OC)c1)NCC2 (configuration not stated),1.2,2.7
Cc1ccc(-c2nc(CS(=O)(=O)CC(=O)NCCC(C)C)c(C)o2)cc1,1,0.08
Cc1nc2c(C(=O)NCCc3ccc(Cl)cc3)cnn2c(C)c1Cc1ccc(F)cc1,0.74,-4.6
Cc1onc(-c2c(Cl)cccc2Cl)c1C(=O)NCCN1CCOCC1,1,0.025
COc1ccc(-c2nnc(SCc3nc4ccccc4[nH]3)n2-c2ccccc2)cc1OC,1,0.037
Cc1ccc(NC(=O)C(C)N2CCOCC2)c(C(=O)c2ccccc2)c1 (configuration not stated),1,0.21
COc1ccccc1Nc1c2c(nc3ccc(NC(=O)COc4ccc(Cl)c(Cl)c4)cc13)CCCC2,0.74,-5.6
O=C1CCCN1CCCNc1ncnc2c1c(-c1ccccc1)cn2-c1ccc(F)cc1,0.98,-0.51
CCC(C)NC(=O)C1CCN(c2nnc(-n3cccc3)s2)CC1 (configuration not stated),0.86,-2.3
Cc1cc(C)cc(N2CC(c3nc4ccccc4n3CC(C)C)CC2=O)c1 (configuration not stated),0.98,-0.079
O=C(NC1CC1)C1CCN(C(=O)c2cnn(-c3ccccc3)c2-n2cccc2)CC1,0.9,-0.23
Cc1ccc2cc(CCNC(=O)c3cccc4ccccc34)c(=O)[nH]c2c1C,1.1,1.9
O=C(Cn1cnc2sc3c(c2c1=O)CCCC3)N1CCN(c2ccccc2Cl)CC1,1,0.95
CCOc1ccc(Nc2cc(C(=O)N3CCN(C)CC3)c3ccccc3n2)cc1,0.87,-3.6
CCOc1ccc(CNC(=O)c2ccc3c(c2)N(CC)C(=O)c2ccccc2S3)cc1,0.85,-2.9
COc1cc(Br)cc(CNc2ccc3oc(Cc4ccc(Cl)cc4)nc3c2)c1O,0.75,-6.4
COc1ccc(CNC(=O)C2C3C=CC4(CN(Cc5ccccc5Cl)C(=O)C24)O3)cc1 (configuration not stated),1,1.5
O=C(Nc1ccc(F)cc1)Nc1cccnc1Cl,0.95,-1.4
CCCCN(CC)C(=O)CCC(=O)Nc1ccc2nc(N3CC(C)CC(C)C3)cc(C)c2c1 (configuration not stated),1.1,2.2
Cc1ccc2c(c1)N(CC(=O)NCc1ccccn1)C(=O)CO2,0.95,-1.2
CCc1ccc(N2CC(c3nc4ccccc4n3CC)CC2=O)cc1 (configuration not stated),1.1,2.2
COc1ccc(C2CC(=O)N(CC(=O)Nc3ccc(C)c(Cl)c3)c3ccccc3S2)cc1OC (configuration not stated),0.9,-1.4
Clc1ccc(-c2noc(COc3ccccc3)n2)cc1,1.5,9.2
CCc1c(-c2ccc(Cl)cc2)nc2n1Cc1ccccc1-2,0.81,-4.1
CCOc1ccc(CN2C(=O)CCC2(C)C(=O)NC2CCCCC2)cc1 (configuration not stated),0.88,-2
Cc1cccc(NC(=O)C(NS(=O)(=O)c2cccs2)C(C)C)n1 (configuration not stated),1.1,1.7
Cc1ccc(CSc2nc3ccncc3n2Cc2cccc(C)c2)cc1,0.98,-0.28
Cc1ccc(NC(=O)CCCN2C(=O)c3cccnc3C2=O)c(Br)c1,0.85,-2.5
Cc1ccc(-c2nc(S(=O)(=O)c3ccccc3)c(SCC(=O)Nc3ccc(F)cc3)o2)cc1,1,0.35
CN1CCN(c2nc3ccccc3nc2NS(=O)(=O)c2ccc(Br)cc2)CC1,0.83,-1.7
CCOC(=O)c1sc2nc(Cc3ccccc3)nc(NCCC3=CCCCC3)c2c1C,1.1,0.11
Cc1ccc(C2C(=O)N(C3CCCCC3)CC(=O)N2Cc2ccccc2)cc1 (configuration not stated),0.96,-0.092
COc1ccc(-c2nc(SCC(=O)Nc3ccc(C)cc3)c(-c3ccc(F)cc3)[nH]2)cc1OC,0.87,-0.56
Cc1cccnc1-n1c(CCN2C(=O)c3ccccc3C2=O)nc2ccccc2c1=O,0.97,-1
COc1ccccc1Nc1ncc(C(=O)NCC2CCCO2)c2ccccc12 (configuration not stated),1.1,0.84
Cc1ccc(NC(=O)CSc2nnc(Cc3cc(=O)[nH]c(=O)[nH]3)n2-c2cc(C)ccc2C)cc1,1.1,0.19
COc1cccc(C(=O)Nc2nnc(CCS(=O)(=O)c3cc(Cl)ccc3Cl)s2)c1,1.1,0.73
Cc1ccc(S(=O)(=O)Nc2ccccc2CNc2nc3ccccc3n2C)cc1,0.92,-0.18
Cn1c(=O)c(C#N)c(-c2ccccc2)n2cnnc12,1.1,2.8
COc1ccccc1C(=O)Nc1c2c(nn1-c1cc(C)cc(C)c1)CSC2,0.95,-1.1
CN(C)c1ccc(NC(=O)Cn2c(SCc3ccc(F)cc3)nc3ccncc32)cc1,0.84,-1.5
Cc1c(C(=O)NCC2CCCO2)oc2ccc(S(=O)(=O)N3CCCCCC3)cc12 (configuration not stated),1.2,1.9
COCCNC(=O)c1ccc2c(c1)nc(C)n2-c1cc(Cl)ccc1OC,0.98,-0.52

# Copied from the list:
# Result of COc1ccc(-c2nc(SCC(=O)Nc3ccc(C)cc3)c(-c3ccc(F)cc3)[nH]2)cc1OC in CBX7 AlphaScr z-score: -0.56
# Result of COc1cc(Br)cc(CNc2ccc3oc(Cc4ccc(Cl)cc4)nc3c2)c1O in CBX7 AlphaScr: 0.75

# More structures
SMILES,CBX7 AlphaScr,CBX7 AlphaScr z-score
Clc1cccc(CNc2ccc3nncn3n2)c1,1,0.15
Cc1cccc(NC(=O)C2CCN(c3nnc(-n4cccc4)s3)CC2)c1C,1,0.36
Fc1ccc(CSc2nc3ccncc3n2Cc2ccccc2F)cc1,1.1,1.3
Cc1cccc(Nc2c(-c3ccc(N4CCOCC4)cc3)nc3ncccn23)c1,1.1,1.2
COc1ccc(-n2nnc3c(=O)n(CC(=O)NC4CCCC4)cnc32)cc1,1,0.85
COc1ccc(C(=O)NCc2nnc(SCC(=O)Nc3cc(OC)ccc3OC)o2)cc1,1.1,1.1
CCOC(=O)c1cnc2c(C)cc(C)cc2c1NCCCN1CCOCC1,1.1,1.3
CC(=O)Nc1ccccc1-c1nc2ccc(C(=O)N3CCN(c4cccc(C)c4)C(C)C3)cc2[nH]c1=O (configuration not stated),0.96,-0.76
CC(C)(C)c1ccc2c(c1)N(CC(=O)NCCCN1CCN(c3ccccc3F)CC1)C(=O)CO2,0.86,-2.4
CCN(CC)c1ccc(NC(=O)C2CCN(c3nc4ccccc4[nH]3)CC2)c(C)c1,0.75,-2.9
O=c1cc(N2CCN(c3ccccc3F)CC2)[nH]c(=O)n1-c1ccccc1Cl,0.9,-2
CCOC(=O)c1cnc2c(OC)cccc2c1Nc1cnc2ccccc2c1,0.83,-2.9
Cc1ccc(-c2nn(CC(=O)NCCN3CCOCC3)c(=O)c3ccccc23)cc1,0.99,-0.079
Cc1cccc(NC(=O)CS(=O)(=O)c2nc(-c3ccccc3)cn2-c2ccc(Cl)cc2)c1C,1,0.29
CCN(CCCNC(=O)c1nn(-c2ccccc2OC)c(=O)c2ccccc12)c1cccc(C)c1,0.48*,-7.1*

# Given with values under each structure: part of the list above
# Values in the order: CBX7 AlphaScr, CBX7 AlphaScr z-score
Cc1ccc(-c2nc(CS(=O)(=O)CC(=O)NCCC(C)C)c(C)o2)cc1
  1, 0.08
Cc1nc2c(C(=O)NCCc3ccc(Cl)cc3)cnn2c(C)c1Cc1ccc(F)cc1
  0.74, -4.6
Cc1onc(-c2c(Cl)cccc2Cl)c1C(=O)NCCN1CCOCC1
  1, 0.025

# Next section
SMILES,CBX7 AlphaScr,CBX7 AlphaScr z-score
CCCCCNC(=O)c1c[nH]c2ccc(S(=O)(=O)N(C)c3cccc(C)c3)cc2c1=O,1.1,0.96
CC(=O)NC(CCS(C)(=O)=O)C(=O)Nc1cccc(Cl)c1 (configuration not stated),1,1.5
Cc1cc(C)c2nc(NC(=O)CCOc3ccccc3)sc2c1,1,1.1
CC(C)N1C(=O)CCC1C(=O)N1CCC(Cc2ccccc2)CC1 (configuration not stated),1.1,1.2
COCCNC(=O)CN1C(=O)CSc2ccc(S(=O)(=O)N(C)C3CCCCC3)cc21,1,0.065
Oc1cc2c(cc1O)C(c1c(F)cccc1F)NCC2 (configuration not stated),0.98,-0.29
O=C(NCCNC(=O)C1CCCNC1=O)c1ccc(Cl)cc1 (configuration not stated),1,1.2
COc1cc(OC)c(NC(=O)CCc2c(C)nc3cc(-c4ccccc4OC)nn3c2C)cc1Cl,1,0.14
Cc1cc(Nc2ccc3c(c2)OCCO3)c2ccccc2n1,1.2,2.8
Cc1cc(C)cc(NS(=O)(=O)c2ccc3[nH]cc(C(=O)N4CCN(C)CC4)c(=O)c3c2)c1,0.88,-2.3
Cc1cccc(Cc2c(C)nc3c(C(=O)N4CCCC4)cnn3c2C)c1,0.99,-0.27
Cc1oc(-c2ccc(Cl)cc2)nc1CN1CCC(C(=O)N2CCCC2)CC1,1.1,0.77
O=C(NCCCN1CCCC1=O)Nc1ccc(Br)cc1,0.94,-1.1
CCOc1ccc(NC(=O)c2cnn(-c3ccccc3)c2C2CCNCC2)cc1,1.1,1.1
COc1ccc(-c2nc3cc(C)ccn3c2NC(=O)c2ccccc2F)cc1,1,-0.069

# Structures above that contain a COOH group (2):
SMILES,CBX7 AlphaScr,CBX7 AlphaScr z-score
Cc1c2cnn(CC(=O)O)c(=O)c2c(C)n1Cc1ccccc1,0.8,-2.2
Cc1nc2c(C(=O)O)cnn2c(C)c1Cc1ccccc1,1.1,1.7

# Other compounds
SMILES,CBX7 AlphaScr,CBX7 AlphaScr z-score
Cc1nccc2[nH]c(=O)c(C(=O)NC3CCC(C)CC3)cc12 (configuration not stated),1.2,1.1
COc1ccc(C(c2sc3nc(C)nn3c2O)N2CCN(Cc3ccccc3)CC2)cc1OC (configuration not stated),1,1
CCOc1cc(C2CC(=O)Nc3cc4c(cc32)OCO4)ccc1OC(=O)c1ccc(OC)cc1 (configuration not stated),0.55,-5.8
CCc1ccc(-c2nc(CN3CCC(C(=O)NCc4ccccc4OC)CC3)c(C)o2)cc1,0.83,-2.5
O=C1CCCc2c1cc(C(=O)Nc1ccccc1)c(=O)n2-c1ccc(Cl)cc1,1,-0.012
Fc1ccc(-c2nc3cc(C(F)(F)F)cc(Cl)c3nc2-c2ccc(F)cc2)cc1,1,0.083
COc1ccccc1C(=O)N1CCN(c2ccc3nncn3n2)CC1,1,-0.07
Cc1ccc(-c2noc(-c3ccc(C(C)(C)C)cc3)n2)cc1,1.3,11
